Mtb hypoxia inh – reduces hypoxia-regulated biosensor signal in M. tuberculosis; fluorescence inhibition, % (test concentration not listed); M. tuberculosis hypoxia-regulated fluorescent reporter, fluorescence; 300,000 tested, 0.1% active; AID 1159583;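 active = 35 to 45% if threefold the growth effect, above 45% if 1.5-fold the growth effect; inactive = the rest, general growth blockers included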;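 also: wells of about 50 µL received 100 nL stock; 0% = vehicle wells and 100% = reference inhibitor wells; whole bacteria with a GFP reporter of the hypoxia response; strong numbers were not always called active; many hits fall short of the cut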
BJeLR lethal – BJeLR cell viability loss; BJeLR (HRASV12) viability, CellTiter-Glo ATP luminescence, 48 h; reference of the scale not given here; inhibition, % (concentration not given with the values); 300,000 tested, 0.17% active; AID 1554;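 active = replicate mean above 50%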;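 also: 50 nL library stock added to about 25 µL; numbers are from one replicate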
ugtP null kill – kills S. aureus RN4220 lacking UgtP. S. aureus RN4220 ugtP deletion, OD600 growth, 16 h; some inactives read as strong as hits. growth inhibition, % (no concentration beside the values). 330,000 tested, 0.54% active;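 active = z-score under -3 and OD600 up to 0.15 on both plates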;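 also: plate controls were untreated wells for no effect and antibiotic for full effect; wells of about 80 µL received 100 nL stock; the first replicate is given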
Autofluor counter – counter-screen for toxin protease inhibitors: compound fluorescence; compound autofluorescence counterscreen, microsphere flow cytometry; hits give high values; fluorescence intensity (test concentration not listed); 360,000 tested, 3.1% active;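 active = at least 3 SD above the mean of all compounds, about 16000 in these data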;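 also: 100 nL of 1 mM stock went into each well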
PrP UTR inh – suppresses PrP 5' UTR mRNA reporter expression | inhibition, % (no concentration beside the values) | AID 488862 | cell-based PrP 5' UTR mRNA reporter, plate reader | 340,000 tested, 0.35% active;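 active = every replicate at 50% or more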;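 also: 0 = median of the neutral control wells; tested in H4 reporter cells; numbers are from one replicate; inactives centre near -14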
Sa RN4220 lethal – S. aureus RN4220 growth inhibition | 330,000 tested, 0.33% active | OD600, 16 h | inhibition, % (concentration not given with the values) | AID 1259311;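 active = z-score of -3 or lower and OD600 up to 0.18 on both plates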;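 also: plate controls were untreated cells for no effect and reference antibiotic for full effect; stock transfer was 100 nL into about 80 µL; one replicate is shown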
Mtb hypoxia inh growth – recorded beside Mtb hypoxia inh, whose call it bears; growth inhibition, %; measured here: M. tuberculosis growth (absorbance);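 0% = vehicle and 100% = reference antibiotic; read after six days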
Numbers without * were called inactive; nt = no result given.

canonical_smiles	PrP UTR inh	ugtP null kill	Mtb hypoxia inh	Mtb hypoxia inh growth	BJeLR lethal	Autofluor counter	Sa RN4220 lethal
CCOc1ccc(CSC(=N)N)cc1	-12	-2	1	1	1	2523	4.4
CCC(=O)Nc1nnc(-c2cccs2)s1	-8	14	13	5	-9	4653	8.2
CC1=NN(C(=O)c2ccco2)C(O)(c2ccccc2)C1 (stereo unspecified)	-28	-2	13	1	-3	nt	5.0
COCC(=O)Nc1nc(-c2ccccc2)c(C)s1	-95	-1	0	11	4	19856*	4.6
Cc1ccc(N(CC(O)CN2CCCCC2)S(=O)(=O)c2ccc(C)cc2)cc1 (stereo unspecified)	-17	8	17	5	-11	5058	3.5
O=C(NNC(=O)c1cc(-c2ccccc2)n(-c2ccccc2)n1)c1cccc([N+](=O)[O-])c1	-2	2	3	7	11	2170	-11
Cc1ccc(S(=O)(=O)/N=C2/NC(=O)/C(=C/c3cc([N+](=O)[O-])ccc3O)S2)cc1	1	nt	nt	nt	-10	5997	nt
O=C(CN(Cc1cccs1)C(=O)CNS(=O)(=O)c1ccccc1)NCc1ccco1	-13	14	nt	nt	14	2589	13
CCOn1c(=O)c(-c2cccc(Br)c2)[n+]([O-])c2ccccc21	-18	nt	nt	nt	13	3795	nt
CC(=O)Oc1ccc(N(C(C)=O)S(=O)(=O)c2ccc(C)c([N+](=O)[O-])c2)cc1	-8	-2	-7	-7	-10	2480	4.3
Cn1c(NCCN2CCCCC2)cc(=O)n(C)c1=O	-10	3	nt	nt	-3	2803	2.1
COc1ccc(C(NC(=O)C(C)C)c2ccc3cccnc3c2O)cc1 (stereo unspecified)	32	-10	3	-5	30	3493	-1.2
Cc1cc(=O)oc2cc(OCC(=O)Nc3c(Cl)cccc3C(F)(F)F)ccc12	-22	0	-3	4	3	6200	4.7
CCOC(=O)c1c(C)oc(C)c(C(=O)OCC)c1=O	1	nt	nt	nt	0	4325	nt
O=C(NCC1CCCO1)c1cccc(S(=O)(=O)N(Cc2ccccc2)c2ccccc2)c1 (stereo unspecified)	1	nt	nt	nt	-9	4690	nt
O=C(CNC(=O)c1ccccc1F)OCCOc1cccc(Cl)c1	-34	6	10	1	-1	7653	1.6
COCCN1CCN(C(=O)c2cc(COc3ccc(F)cc3Cl)on2)CC1	-8	6	11	1	13	4831	2.7
Cc1oc2c(C)c3oc(=O)c4c(c3cc2c1C)CCCC4	-3	-1	0	-5	-2	9106	5.9
COc1ccc(CCNC(=O)CC(Cc2ccc(C)cc2)C(=O)O)cc1OC (stereo unspecified)	-10	-1	14	7	-7	3665	-1.4
COc1ccc(-c2noc(=O)n2Cc2ccccc2F)cc1	-31	8	8	3	-5	4413	4.2
O=C(CCN1C(=O)C2CC=CCC2C1=O)Nc1nc(-c2ccc(F)c(F)c2)cs1 (stereo unspecified)	-16	0	-4	-4	nt	6646	-4.4
Cc1cc(C)c(NC(=S)N(CCN(C)C)Cc2cccs2)c(C)c1	-30	-7	-8	1	-3	4544	-0.2
COc1ccc(C(=O)N2CCN(C(=O)CC(C)C)CC2)cc1OC	-15	0	12	8	-1	2647	6.2
Clc1ccc(CN2C3=NCCCN3c3ccccc32)cc1	-3	-1	nt	nt	7	4833	4.6
O=C(COC(=O)c1ccc(O)cc1)c1ccc(S(=O)(=O)N2CCCCC2)cc1	-7	7	-1	3	nt	4048	5.9
Cc1cc(C)nc(S/C=C/C(=O)c2ccccc2)n1	-17	2	10	9	-11	3981	1.0
COc1ccc(C(=O)NC(Cc2c[nH]c3ccccc23)C(=O)O)cc1 (stereo unspecified)	-6	5	14	3	-7	4011	2.0
Cc1ccc(S(=O)(=O)N2CCN(C(=O)C(F)(F)F)C2c2ccc(N(C)C)cc2)cc1 (stereo unspecified)	-17	-2	15	3	7	3651	1.7
O=C(C1=C[C@@H](c2csc3ccccc23)C[C@@H](OCc2ccc(CO)cc2)O1)N1CCN(Cc2ccccc2)CC1	3	nt	nt	nt	-4	3983	nt
CCOC(=O)c1c(C)n(CC(COC(C)=O)OC(C)=O)c2ccc(OC(C)=O)cc12 (stereo unspecified)	-5	6	6	6	-8	16360*	7.1

Rewritten as labelled records: two of the compounds above.
> COc1ccc(C(=O)N2CCN(C(=O)CC(C)C)CC2)cc1OC
- PrP UTR inh: -15
- ugtP null kill: 0
- Mtb hypoxia inh: 12
- Mtb hypoxia inh growth: 8
- BJeLR lethal: -1
- Autofluor counter: 2647
- Sa RN4220 lethal: 6.2

> Clc1ccc(CN2C3=NCCCN3c3ccccc32)cc1
- PrP UTR inh: -3
- ugtP null kill: -1
- Mtb hypoxia inh: nt
- Mtb hypoxia inh growth: nt
- BJeLR lethal: 7
- Autofluor counter: 4833
- Sa RN4220 lethal: 4.6

Remaining list, next part.
canonical_smiles	PrP UTR inh	ugtP null kill	Mtb hypoxia inh	Mtb hypoxia inh growth	BJeLR lethal	Autofluor counter	Sa RN4220 lethal
COc1ccc(O)c(C(=O)CC(=O)c2ccncc2)c1	-98	4	10	0	nt	3584	-0.1
Fc1ccc(CN2CCCN(C(=S)Nc3ccc(F)cc3)CC2)cc1	8	-4	3	3	-1	4500	2.7
CC(=O)N=c1sccn1CC(=O)c1ccc([N+](=O)[O-])cc1	-7	2	3	-1	2	14945	2.1
O=C(NCc1nc2ccccc2[nH]1)C1=CC(C2CCCCC2)CC(OCc2ccc(CO)cc2)O1 (stereo unspecified)	nt	15	18	6	nt	nt	-2.5
Cc1nnc(SCc2nnc(-c3ccccc3)o2)n(N)c1=O	-30	2	nt	nt	-1	3634	1.1
COC(=O)c1cn(CC(=O)Nc2ccccc2C)c2ccccc12	-15	7	11	1	-13	3903	5.7
COc1ccc(OCC(O)CNC(=O)c2c(-c3ccccc3)noc2C)cc1 (stereo unspecified)	-7	2	0	12	4	4469	2.4
Fc1ccc(Br)cc1C1C=C(c2cccnc2)Nc2ncnn21 (stereo unspecified)	-6	6	8	4	13	4742	2.0
COc1ccccc1NC(=O)CCC(=O)Nc1cc(OC)c(NC(=O)c2cccs2)cc1OC	-34	17	11	8	-5	3740	15
CCn1c(N2CCN(C(=S)NCC(C)C)CC2)nc2ccccc21	-26	-6	9	5	1	9990	2.7
COC(=O)Cc1ccc(NC(=S)NCc2ccc(S(N)(=O)=O)cc2)cc1	2	2	-6	9	2	3690	2.3
CN1C(=O)c2oc3ccccc3c(=O)c2C1c1ccccn1 (stereo unspecified)	-11	-4	nt	nt	-3	2795	2.3
Cn1c(CNC(=O)CNC(=O)c2ccc(C(C)(C)C)cc2)cc(=O)n(C)c1=O	-13	11	6	3	-1	5622	-0.6
NC(COc1cc(Cl)cc(Cl)c1)=NO	nt	0	4	15	nt	nt	1.6
Cc1ccc(CSc2nnc(SCC(=O)N/N=C/c3c(C)nn(-c4ccccc4)c3C)s2)cc1	-35	nt	nt	nt	1	2088	nt
Nc1nc(SCC(=O)Nc2ccc([N+](=O)[O-])cc2Br)n[nH]1	-14	nt	nt	nt	3	2354	nt
O=S(=O)(c1cccs1)N1CCN(Cc2cccc(F)c2)CC1	-12	1	7	-2	8	5711	-2.3
OCCNCc1ccc(OC2CCCC2)cc1	-16	5	13	5	3	10682	1.1
Cc1cccc(NC(=O)C2CC(=O)n3cnnc3S2)c1 (stereo unspecified)	-12	10	nt	nt	-1	4241	6.2
Cc1ccccc1NC(=O)CCc1c(C)nn(-c2ccc(N3CCOCC3)nn2)c1C	-1	-7	-4	11	7	6348	0.4

5 entries drawn at random from those above, as already listed:
canonical_smiles	PrP UTR inh	ugtP null kill	Mtb hypoxia inh	Mtb hypoxia inh growth	BJeLR lethal	Autofluor counter	Sa RN4220 lethal
CN1C(=O)c2oc3ccccc3c(=O)c2C1c1ccccn1 (stereo unspecified)	-11	-4	nt	nt	-3	2795	2.3
COC(=O)Cc1ccc(NC(=S)NCc2ccc(S(N)(=O)=O)cc2)cc1	2	2	-6	9	2	3690	2.3
Cc1cccc(NC(=O)C2CC(=O)n3cnnc3S2)c1 (stereo unspecified)	-12	10	nt	nt	-1	4241	6.2
Nc1nc(SCC(=O)Nc2ccc([N+](=O)[O-])cc2Br)n[nH]1	-14	nt	nt	nt	3	2354	nt
Cn1c(CNC(=O)CNC(=O)c2ccc(C(C)(C)C)cc2)cc(=O)n(C)c1=O	-13	11	6	3	-1	5622	-0.6

(listing goes on)
canonical_smiles	PrP UTR inh	ugtP null kill	Mtb hypoxia inh	Mtb hypoxia inh growth	BJeLR lethal	Autofluor counter	Sa RN4220 lethal
Cc1cccc(N(CC(=O)NCc2ccco2)C(=O)CNS(=O)(=O)c2ccc(F)cc2)c1	-9	3	-9	-4	-17	3904	1.8
COc1ccc(C(C(=O)NC2CCCC2)N(C(=O)c2snc(C(N)=O)c2N)c2cccc(O)c2)cc1 (stereo unspecified)	1	-2	9	-2	-6	2917	-0.5
Cc1ccc(NC2=C(NCCO)C(=O)c3ccccc3C2=O)cc1	-30	9	3	8	-3	1948	15
CN(C)C(CNC(=O)c1ccc(NC(=O)c2cccs2)cc1)c1ccccc1 (stereo unspecified)	-13	11	0	4	-3	3595	3.1
CC(=NNC(=O)C(=O)Nc1c(C)n(C)n(-c2ccccc2)c1=O)c1ccc(Cl)s1	nt	11	6	4	nt	nt	-0.2
C=CCn1c(SCCOc2ccc(OC)cc2)nnc1C(C)NC(=O)c1ccc(OC)cc1 (stereo unspecified)	-2	26	5	1	7	8159	5.6
FC(F)(F)c1nc(SCc2ccc(Cl)cc2Cl)n[nH]1	-12	83*	0	-2	-3	4348	81
Cn1c(-c2ccc(F)cc2)cnc1SCC(=O)NNC(=O)Cc1ccccc1	-5	-7	-2	3	-20	4623	-2.3
Cc1cc(C)c2c(N)c(C(=O)Nc3ccc([N+](=O)[O-])cc3)sc2n1	-85	-1	-5	0	0	2858	2.9
O=C(C1CCCN(S(=O)(=O)c2ccc(F)cc2)C1)N(Cc1cccs1)C1CC1 (stereo unspecified)	-2	5	nt	nt	-4	4729	3.5
COc1ccc(/C=N/NC(=S)Nc2cc(S(=O)(=O)N3CCOCC3)ccc2N2CCOCC2)cc1O	-2	nt	nt	nt	9	2655	nt
O=C(O)c1cc(S(=O)(=O)N2CCCCC2)ccc1F	-19	-2	-4	-3	-6	21594*	1.5
O=C(NC(=S)Nc1ccccc1N1CCN(C(=O)c2ccccc2)CC1)c1cccs1	-18	2	-2	-13	-1	5794	4.4
O=C(O)c1ccc2c(c1)C(=O)N(CCc1c[nH]c3ccccc13)C2=O	-31	12	15	7	1	3935	-1.8
Cc1ccccc1-c1cc(C(=O)NCc2cccc(C(F)(F)F)c2)n(CC2CC(c3cccnc3)=NO2)n1 (stereo unspecified)	10	-18	5	7	nt	3879	-1.5
CCCCn1c(SCC(=O)N2CCN(c3ccccc3)CC2)nc2ccsc2c1=O	nt	-3	-10	0	-1	9208	-1.3
CC(NC(=O)CSC1=NCCS1)c1ccccc1 (stereo unspecified)	-22	4	8	3	4	9859	6.4

Bioassay records deposited in PubChem by several laboratories.

Hits appear at their usual frequency (roughly 4.1% active in at least one column).
